High-throughput results deposited in PubChem BioAssay by several laboratories.
CSC inhib – cancer stem cell inhibition. cancer stem cell-like cells viability, luminescence. inhibition, % at 7.5 µM. 300,000 compounds, 1.1% hits;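 active = mean at 75% or more and at least half the replicates too; inconclusive = mean and replicates disagree; tested in HMLE shEcad cells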;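 also: 0% = median of negative and 100% = median of positive control wells; the first replicate is given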
MT1-MMP act inh – blocks activation of human MT1-MMP; 360,000 compounds, 0.061% hits; HT1080 RFP-PRO-GFP cells, GFP/RFP ratio fluorescence, overnight; percent of plate control window, DMSO zero; P50281; GFP/RFP ratio change, % at 20 µM;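 active = GFP/RFP ratio change of at least 30% with cell ATP level not reduced by more than half and red fluorescence within 50% of control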; also: strong numbers were not always called active
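Assay system: HT1080 RFP-PRO-GFP cells. Benchmarks: DMSO vehicle wells and RFP-L50D-GFP reporter cell wells. Times: overnight cell settling, then overnight compound exposure, 37 °C, 5% CO2. Compound: 20 µM single dose, 1% DMSO. Read-out basis: GFP/RFP fluorescence ratio.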
UUG fidelity – modulators of start codon recognition fidelity in yeast; S. cerevisiae UUG-firefly luciferase reporter, luminescence/redox ratio; activity score, % at 18.7 µM; 350,000 compounds, 0.13% hits;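 active = replicate mean at a twofold rise or more, about +100% in these data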;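 also: firefly luciferase made from a UUG start codon reports start codon fidelity; reporter light over untreated wells divided by growth signal over untreated wells; some hits fall short of that in this replicate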
eIF4H FP inh – inhibitors of RNA binding by human eIF4H. Q15056. eIF4H fluorescence polarization binding assay. inhibition, % at 35 µM. 290,000 compounds, 0.94% hits;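 active = 50% or more with normal probe brightness, or confirmed in later tests; inconclusive = above 50% with abnormal brightness, or retests that disagree; inactive = below 50% or failed in later tests; about a fifth of its hits are not listed in these tables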;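 also: calls also rest on retests at 20 µM and on dose response follow-up; 0% = protein and probe with vehicle and 100% = probe without protein; strong numbers were not always called active; many hits fall short of the cut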
PABP polyA inh – blocks human PABP binding to poly(A) RNA; P11940; fluorescence polarization; inhibition, % at 35 µM; 290,000 compounds, 1% hits;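 active = 50% or more with normal probe brightness, or confirmed in later tests; inconclusive = above 50% with abnormal brightness, or retests that disagree; inactive = below 50% or failed in later tests; about a fifth of its hits are not listed in these tables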;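 also: calls also rest on retests at 20 µM and on dose response follow-up; controls were probe without protein and protein plus probe with vehicle; some compounds called inactive have numbers as strong as hits; many hits fall short of the cut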
Rce1 inhib – blocks yeast Ras-converting enzyme; yeast membranes, quenched prenylated peptide cleavage fluorescence; calls only; 290,000 compounds, 0.27% hits; AID 2563;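 active = fall in fluorescence gain of 50% or more versus controls, with final raw signal at or below 3038400; inconclusive = same 50% fall but final raw signal above 3038400; inactive = fall in fluorescence gain under 50%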;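 also: plate controls were neutral control wells for no effect and wells lacking membranes for full effect; tested at 10 µM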
Target sequence (Q03530 whole entry, looked up): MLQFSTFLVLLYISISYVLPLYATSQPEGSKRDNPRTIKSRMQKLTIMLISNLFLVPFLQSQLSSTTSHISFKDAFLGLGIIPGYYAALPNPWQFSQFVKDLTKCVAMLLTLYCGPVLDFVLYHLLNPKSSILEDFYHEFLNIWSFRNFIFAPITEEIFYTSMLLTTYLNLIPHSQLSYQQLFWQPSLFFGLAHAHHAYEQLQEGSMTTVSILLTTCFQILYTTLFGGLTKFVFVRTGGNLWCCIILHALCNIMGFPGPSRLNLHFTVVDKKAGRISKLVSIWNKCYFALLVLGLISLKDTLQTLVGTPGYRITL
HIV Env fusion – inhibitors of HIV Env-mediated cell fusion. HeLa-JRFL Env/CEM21 cell fusion, luciferase. inhibition, % at 12.3 µM. 360,000 compounds, 1.1% hits;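 active = mean replicate inhibition score of at least 50 and every replicate individually at or above 50; inconclusive = only one of the two criteria met; inactive = mean below 50 and not all replicates reaching 50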;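 also: 0% = plate neutral controls and 100% = maraviroc near 300 nM; one replicate is shown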
MT1-MMP act inh RFP – second read-out of MT1-MMP act inh, no call of its own (marks repeat the call); RFP signal change, %; measured here: RFP expression control read;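 0 = vehicle wells; hits needed this value within 50% of zero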
* = called active by the depositor; i = inactive; ? = inconclusive; / = not tested or not shown; & = joins results of further samples. Some of the compounds tested, so the mix of outcomes need not match the whole.

Results follow in this order: CSC inhib, MT1-MMP act inh, MT1-MMP act inh RFP, UUG fidelity, eIF4H FP inh, PABP polyA inh, Rce1 inhib, HIV Env fusion
- CC(C)(C)c1cn(-c2ccc(F)cc2)c(=S)[nH]1
  -6, 5, -8, -12, 0, 0, i, -93
- CC(C)(C)NC(=O)C(c1ccc(O)cc1)N(Cc1ccccc1)C(=O)CCC(=O)Nc1nccs1 (stereo unspecified)
  16, 0, 1, -3, 1, -2, i, -1
- COc1ccc(N(C)C(=O)c2sc(Cl)nc2C)cc1
  -3, -1, -3, -3, -2, 6, i, 4
- COc1ccc(C(=O)N(CC2CCCO2)C(C(=O)NCCC(C)C)c2ccc(C)cc2)cc1OC (stereo unspecified)
  4, -2, 1, 7, -10, 6, i, 4
- COc1cccc(N2CCC(N3CCN(C)C(CCO)C3)CC2)c1 (stereo unspecified)
  48, 1, -2, -20, 11, 5, i, -1
- C[C@H](NC(=O)NC1CCCc2ccccc21)C(=O)O (stereo partly specified)
  4, 4, 6, -17, -9, 3, i, /
- NC(=O)C1(C(N)=O)OC1c1ccc(Cl)c(Cl)c1 (stereo unspecified)
  -11, 2, 2, -9, -1, -9, i, -8
- O=c1c(C(c2nnnn2C2CCCCC2)N2CCCCC2)coc2ccc(Cl)cc12 (stereo unspecified)
  30, -17, -14, -9, 8, 19, i, -20
- COc1cc(C(C)=O)ccc1OCC(=O)Nc1ccc2nc(C)sc2c1
  -5, 3, -3, -4, /, /, /, /
- CCCn1cnc2c(SCc3ccc(Cl)cc3)nc(N)nc21
  /, 3, -5, -24, /, /, /, -1
- N#Cc1sc2nc3c(c(-c4ccco4)c2c1N)CCCC3
  -8, 5, -9, -25, 34, 48, i, /
- Cc1ccccc1C(=O)NCCCc1ccccc1
  0, 6, 7, /, 2, -14, i, -11
- O=C(Cc1c[nH]c2ccccc12)Nc1nc2ccccc2[nH]1
  7, 2, 2, -20, 2, 10, i, -135
- CC(=O)c1ccc(N2CCN(S(=O)(=O)c3ccc4c(c3)CC(C)N4C(=O)C3CC3)CC2)cc1 (stereo unspecified)
  12, 1, -30, -12, -9, 6, i, 38
- Cc1cccc(C)c1OCC(O)CNC(C)(C)C (stereo unspecified)
  4, 5, 7, -20, -11, -5, i, -28
- COc1ccc(C)cc1N(CC(N)=O)S(=O)(=O)c1ccc(C)cc1
  -7, 0, -13, -2, -2, -2, i, 2
- Cc1ccc2nc(SCC(=O)Nc3ncccn3)[nH]c2c1
  -7, -6, -3, /, 8, 8, i, -7
- CCCN(CCC)CCNC(=O)c1cc2c(=O)n(CC)c3ccccc3c2s1
  0, 3, -2, -16, 0, 12, i, -8
- COc1cc(/C=N/NC(=O)NC23CC4CC(CC(C4)C2)C3)ccc1O
  7, 1, -8, 0, -12, -5, i, 35
- CC(C)c1nc2c(c(=O)c3ccccc3n2C)c(=O)n1CCc1ccccc1
  -9, 0, -7, 9, -10, -2, i, -187
- COc1ccc(OC)c(S(=O)(=O)NC(=O)C2(C)CCN2C(=O)Cc2ccc(Cl)cc2Cl)c1 (stereo unspecified)
  /, -4, 1, 4, /, /, /, -6
- CC1(C)C(=O)OC(c2cccn2-c2cccc([N+](=O)[O-])c2)C2(CCCCC2)C1=O (stereo unspecified)
  33, /, /, /, -3, -2, i, 11
- CCOC(=O)C1C(C(=O)OC)=C(c2ccc(F)cc2)c2ccccc2N1S(=O)(=O)C(F)(F)F (stereo unspecified)
  /, -2, -6, 54, /, /, /, -31
- COc1ccc(N2CCN(C(=O)CCNS(=O)(=O)c3ccc(Br)s3)CC2)cc1
  2, 0, -7, 0, -6, 4, i, /
- O=C(NCc1ccccc1)C(=O)Nc1cccc(C(=O)O)c1
  -7, /, /, -85, 0, 1, i, 38
- COc1ccc2[nH]c3ccccc3c2c1
  /, 5, 3, -19, -6, -4, i, /
- O=C(Oc1cc(Cl)ccc1Cl)c1ccc(N2CCOCC2)c([N+](=O)[O-])c1
  1, 6, 6, 1, -4, -1, i, -175
- CSC(=O)NC(=O)NC(=O)c1ccc([N+](=O)[O-])cc1
  -4, -5, -4, -13, -1, 8, i, -3
- O=C(O)CCc1ccc(-c2ccccc2)n1NC(=O)c1sc2ccccc2c1Cl
  4, -7, -2, -4, 4, 13, i, -7
- C=CCN1C(=O)C2C(C(=O)NC3CCCC3)C3(C)C=CC2(O3)C1C(=O)NC1CCCC1 (stereo unspecified)
  /, -2, 7, -10, -18, -3, i, 1
- CCSc1nnc(N2C(=O)C(O)=C(C(=O)c3ccco3)C2c2cccc(OC)c2)s1 (stereo unspecified)
  -3, -44, 6, -7, ?, ?, i, -2
- CCOC(=O)c1cccc(NC(=O)COc2nsnc2N2CCOCC2)c1
  17, 2, -4, 0, -2, 4, /, -14
- O=C(CSCc1c(F)cccc1Cl)NCc1cccnc1
  -15, -9, 0, -1, 9, 24, i, /
- COc1ccc(-n2c(=O)cc(N3CCN(c4ccccc4)CC3)[nH]c2=O)cc1
  4, 0, 0, -11, 6, 5, i, -39
- O=C(c1ccc2nsnc2c1)N1CCN(c2ccc([N+](=O)[O-])cc2)CC1
  0, 1, -11, -9, -5, -1, i, -1
- C/C(=N/NC(=O)C1CCCC1)c1ccc(NC(=O)C(F)(F)F)cc1
  /, 3, 1, -13&-13, -5, 7, i, /
- COc1ccc(CNC(=O)[C@H](Cc2ccccc2)NC(=O)CC[C@H]2O[C@@H](n3ccc(=O)[nH]c3=O)[C@H](O)[C@@H]2O)cc1
  /, 2, 1, -6, /, /, /, -25
- CCOC(=O)C1(Cc2ccccc2)NC(c2ccccc2F)C2C(=O)N(CC)C(=O)C21 (stereo unspecified)
  -7, 1, 4, -5, 2, -7, i, -115
- CCCNC(=O)C1(C)CCN(C(=O)Cc2ccc(OC)c(OC)c2)C1 (stereo unspecified)
  /, -2, 0, -5, /, /, /, 7
- O=C(c1cccc(F)c1)N1CCN(c2ccc([N+](=O)[O-])c(N3CCCCC3)c2)CC1
  -7, 9, -5, 9, -17, 1, i, /
- O=C(NCCc1ccccc1)c1ccc(NS(=O)(=O)c2ccc3[nH]c(=O)[nH]c3c2)cc1
  11, 4, 3, /, /, /, i, -2
- Cc1csc(SCC(=O)Nc2cc(F)ccc2C)n1
  /, 3, 2, 9, /, /, /, -11
- CCCCC(=O)O
  -7, 9, 3, 6, /, /, i, /
- COC(=O)Cc1cnc(NC(=O)C2C3CCC(C3)C2C(=O)O)s1 (stereo unspecified)
  -27, -2, -1, -22, -2, -9, i, -57
- O=C(NCCN1CCNC1=O)C1CCC(=O)N(CCc2ccc(Cl)cc2)C1 (stereo unspecified)
  /, -1, 2, 7, 12, 7, i, -10
- Cc1[nH]n(-c2ccc(F)cc2)c(=O)c1C=Nc1ccc(S(=O)(=O)N(C)C)cc1
  -3, -3, 6, -1, -4, 0, i, /
- Cc1ccc(CNC(=O)CN2C(=O)NC(C)(c3ccccc3Cl)C2=O)cc1 (stereo unspecified)
  -11, -2, -3, /, -1, -6, i, 9
- CC1(C(=O)NS(C)(=O)=O)CCN1C(=O)Cc1ccc(-c2ccccc2)cc1 (stereo unspecified)
  /, -3, 2, -9, /, /, /, 5
- CC1CC(=O)Nc2ccccc2N1S(=O)(=O)c1ccc(C(F)(F)F)cc1 (stereo unspecified)
  -3, -3, 0, -10, -9, -4, i, -38
- CCOC(=O)CCN(Cc1cccs1)S(=O)(=O)c1ccc(F)cc1
  -14, -4, -2, 13, 2, 3, i, 16
- Cn1c(CSCc2ccc(Cl)cc2)nnc1SCC(=O)Nc1nc2ccccc2s1
  /, 2, 0, -23, -3, -7, i, -8
- O=C(CCNc1ccc(Cl)cc1)c1cccs1
  -6, 2, -4, /, -10, -5, i, 10
- [O-]/[N+](=C\c1ccc(OC(F)F)cc1)c1ccccc1
  -12, 3, 3, -13, -5, -2, i, -6
- N#Cc1ccc(Oc2ccc(S(=O)(=O)N3CCCC3)cn2)cc1
  15, -1, -9, /, /, /, i, 14
- CC1(C)CC(=O)C2=C(C1)NC(=O)CC2c1cc(F)ccc1F (stereo unspecified)
  -5, 1, 0, -10, -15, -2, i, /
- O=C(Nc1cccc(S(=O)(=O)N2CCCC2)c1)[C@@H]1O[C@H](CO)[C@H](O)[C@H](O)[C@H]1O
  /, 3, 5, -12, /, /, /, -5
- CC1(C(=O)Nc2ccc3[nH]ncc3c2)CCN1C(=O)Cc1ccc(-c2ccccc2)cc1 (stereo unspecified)
  /, -2, -22, -18, /, /, /, -2
- COc1cc(C(=O)Nc2nnc(Cc3ccccc3)s2)cc(OC)c1OC
  48, 4, -9, -12, -1, -2, i, -7
- CC(=O)N1c2ccc(S(=O)(=O)N3CCCC3)cc2CC1C(=O)NCc1ccc(OC(C)C)cc1 (stereo unspecified)
  -2, -2, -4, 6, -4, 8, i, 0
- CC1CCCCN1CC(=O)Nc1ccc2c(c1)OC(F)(F)O2 (stereo unspecified)
  3, 0, -2, /, 12, -21, i, 4

(continued)
Results follow in this order: CSC inhib, MT1-MMP act inh, MT1-MMP act inh RFP, UUG fidelity, eIF4H FP inh, PABP polyA inh, Rce1 inhib, HIV Env fusion
- O=C(Cn1nc(C(F)(F)F)c2c1CCCCC2)N1CCOCC1
  -13, -3, 3, -1, -7, -4, i, /
- COc1ccc(-c2nn(CCC(=O)O)cc2/C=C2\SC(N)=NC2=O)cc1OC
  -2, 2, 5, /, 49, -1, i, -18
- Cc1cc2ncn(C3CC(O)C(CO)O3)c2cc1C (stereo unspecified)
  /, 1, -1, -9, /, /, /, -4
- O=S(=O)(c1cccc(-c2n[nH]c(=S)n2-c2ccc(OC(F)(F)F)cc2)c1)N1CCOCC1
  17, 5, 3, -29, /, /, /, /
- CCOC(=O)c1cn(Cc2ccccc2)c2cc(C)nn2c1=O
  15, 2, 0, /, 0, -5, i, 5
- CCN(CC)Cc1nc2c(c(=O)[nH]1)C(CC)(CC)Cc1ccccc1-2
  -1, 1, -1, 7, -2, -2, i, 21
- CCCC1(c2ccccc2)NC(=O)N(CC(=O)NCC2COc3ccccc3O2)C1=O (stereo unspecified)
  3, 4, 0, 7, /, /, /, -7
- O=C(C1CCCN1C(=O)c1cccs1)N1CCc2ccccc21 (stereo unspecified)
  -11, -22, -1, 1, -2, -2, i, -85

Gathered by group, the compounds so far with a cyano group
Results follow in this order: CSC inhib, MT1-MMP act inh, MT1-MMP act inh RFP, UUG fidelity, eIF4H FP inh, PABP polyA inh, Rce1 inhib, HIV Env fusion
- N#Cc1sc2nc3c(c(-c4ccco4)c2c1N)CCCC3
  -8, 5, -9, -25, 34, 48, i, /
- N#Cc1ccc(Oc2ccc(S(=O)(=O)N3CCCC3)cn2)cc1
  15, -1, -9, /, /, /, i, 14
